Source: PubChem BioAssay (National Center for Advancing Translational Sciences (NCATS))
gsp agonist: agonists of gsp mutant (McCune-Albright syndrome). AID 624287. 340,000 compounds, 0.13% hits. Potency, µM (titrated, usually from 76.9 µM), for inactives: top-dose activation (cAMP increase), hits mostly activators. gsp mutant cells, cAMP HTRF, 30 min; control for the full effect not named in the record; active = well fitted activation curve with a large enough effect; inconclusive = small, poorly fitted or top-dose-only effect, or another doubt; inactive = no such curve, though single readings can be large or run the other way; cell line not stated here;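 also: phosphodiesterase inhibitor Ro 20-1724 added with compounds to block cAMP breakdown; potency is read from the fitted curve at half-maximal effect; nearly all actives have a fitted effect of over 60% in size; about a fifth of the inactives were tested at one dose only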
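Cells stably selected in G418 were plated at 2000/well, grown 16-24 hr, then given compounds in DMSO with the PDE inhibitor […] (300 uM solution added) for 30 min at 37C; cAMP was read by HTRF.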
D2 PAM: potentiates the human D2 dopamine receptor allosterically | DiscoveRx D2 beta-arrestin cells, luminescence, 90 min; 100% = 57 uM dopamine signal | potentiation, % (no concentration beside the values) | 360,000 compounds, 0.23% hits | AID 624464; active = potentiation of 50% or more; inconclusive = 30% to 50%; inactive = 30% or less;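 also: compound concentration not given in the record; tested on top of an EC20 dose of dopamine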
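PathHunter beta-arrestin assay in DiscoveRx D2 cells. Compounds were added with an EC20 of dopamine (50 nM final) for 90 min at 37 deg C. Luminescence was read 1 h after detection reagent, with 57 uM dopamine as the EC100 control.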
gsp antagonist: gsp mutant antagonism | gsp-mutant cells, cAMP HTRF, 30 min; control for the full effect not named in the record | Potency, µM (doses to about 76.9 µM), for the others: at the highest dose activity change, negative = inhibition, hits mostly inhibitors | 340,000 compounds, 0.4% hits; active = falling curve of any shape with a large fitted effect; inconclusive = falling curve, mostly with a smaller effect; inactive = flat or rising curve; cell line not stated here;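 also: intracellular cAMP measured with PDE inhibitor Ro 20-1724 present during compound exposure; potency is read from the fitted curve at half-maximal effect; % is scaled to controls: 0 for no effect and ±100 for the full control effect; nearly all actives have a fitted effect of over 65% in size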
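Cells, 2000/well, grown 16–24 h in DMEM 10% FBS with 0.5 mg/ml G418, then compounds plus […] (300 uM addition stock), 30 min at 37C. cAMP read by HTRF (cAMP-d2 and anti-cAMP antibody-K in lysis buffer) after 30 min RT.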
D2 agonist: human D2 receptor agonism in beta-arrestin assay. P14416. DiscoveRx PathHunter D2 beta-arrestin, luminescence, 90 min; 100% = 57 uM dopamine signal. activation, % (test concentration not listed). 360,000 compounds, 0.084% hits. AID 624465; in the data active = activation above about 40%; inconclusive = about 15% to 40%; inactive = below about 15%; also: compound concentration not given in the record; the text of the record calls up to 30% inactive
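Agonist mode: compounds alone added to overnight-plated D2 PathHunter cells for 90 min at 37 C, with 57 uM final dopamine (EC100) defining full response. Beta-arrestin recruitment detected by chemiluminescent reagent, read after 1 h at ambient temperature.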
Six1-Eya2 blk: Six1/Eya2 interaction inhibition; Q15475+O00167; AlphaScreen GST-Six1/His-Eya2 binding, biochemical; hits give low values; control for the full effect not named in the record; activity change, % (concentration not given with the values); 360,000 compounds, 0.56% hits; in the data active = activity change below about -65%; inconclusive = about -30% to -65%; inactive = above about -30%; also: % is scaled to controls: 0 for no effect and ±100 for the full control effect
Target sequence (O00167 whole entry, looked up): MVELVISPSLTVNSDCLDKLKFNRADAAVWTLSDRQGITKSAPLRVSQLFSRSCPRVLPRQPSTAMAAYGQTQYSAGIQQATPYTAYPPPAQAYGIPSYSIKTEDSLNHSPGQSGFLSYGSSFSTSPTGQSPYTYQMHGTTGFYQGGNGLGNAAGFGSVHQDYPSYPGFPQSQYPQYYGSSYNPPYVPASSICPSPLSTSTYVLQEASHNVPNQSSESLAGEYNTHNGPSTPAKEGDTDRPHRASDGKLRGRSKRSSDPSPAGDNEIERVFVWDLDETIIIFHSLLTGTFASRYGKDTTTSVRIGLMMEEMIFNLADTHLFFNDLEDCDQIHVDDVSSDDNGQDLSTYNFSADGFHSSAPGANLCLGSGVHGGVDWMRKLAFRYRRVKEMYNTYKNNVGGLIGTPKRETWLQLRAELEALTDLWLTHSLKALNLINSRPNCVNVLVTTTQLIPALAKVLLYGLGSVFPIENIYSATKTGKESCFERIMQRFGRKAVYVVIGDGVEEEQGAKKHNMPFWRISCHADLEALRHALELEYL
Target sequence (Q15475 whole entry, looked up): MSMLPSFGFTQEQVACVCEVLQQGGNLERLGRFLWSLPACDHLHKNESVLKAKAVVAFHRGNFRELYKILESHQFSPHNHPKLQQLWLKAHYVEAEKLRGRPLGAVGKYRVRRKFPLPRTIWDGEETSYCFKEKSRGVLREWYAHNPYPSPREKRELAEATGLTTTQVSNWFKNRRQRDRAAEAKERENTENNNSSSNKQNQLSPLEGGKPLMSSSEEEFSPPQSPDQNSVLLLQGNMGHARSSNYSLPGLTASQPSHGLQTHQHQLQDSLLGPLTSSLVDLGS
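Six1/Eya2 binding was read as AlphaScreen signal after compounds were pinned into GST-Six1 plus His-tagged Eya2 (5X stock 250/500 nM) in pH 8.0 Tris/NaCl/TCEP buffer, beads added, then incubated 1 h, 37 C, dark.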
CtBP-E1A blk: CtBP/E1A binding inhibition; AlphaScreen GST-E1A/His-CtBP binding, 1536-well; hits give low values; control for the full effect not named in the record; activity change, % (no concentration beside the values); 340,000 compounds, 0.49% hits; in the data active means activity change below about -65%; inconclusive means about -30% to -65%; inactive means above about -30%; also: % is scaled to controls: 0 for no effect and ±100 for the full control effect
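Steps: dispense buffer (Tris pH 8.0, NaCl 300 mM, TCEP 1 mM, BSA, Tween 20); add 5X protein mix (GST-E1A, His-CtBP, 125 nM each); pin 23 nL compound; 2 h at 37 °C, dark; add 5X beads (50 ug/mL); 1 h; read.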
Numbers without * were called inactive; ? = inconclusive; / = no result given; [ ] = another dose, or the depositor's remark.

Second line of a record – gsp agonist	gsp antagonist	CtBP-E1A blk	D2 PAM	Six1-Eya2 blk	D2 agonist
CCOc1cc(/C=N/n2c(C)nc3ccccc3c2=O)ccc1O
  ?	-14%	1	-3	5	-2.3
CCN(CC)c1ccc(/C=N/NC(=O)CNC(=O)C2COc3ccccc3O2)c(O)c1 (stereo not drawn)
  6%[15.4 µM]	-15%	?	-2	-70*	-0.7
CC1(C(=O)Nc2cccc(NS(C)(=O)=O)c2)Cc2c(-c3ccc(C(N)=O)cc3)ccnc2O1 (stereo not drawn)
  /	/	-5	0	-4	-3.3
NC(c1ccc(F)c(F)c1)c1nc(-c2cc(F)cc(F)c2)cs1 (stereo not drawn)
  /	/	4	-11	6	3.3
S=C(NCc1ccccc1Cl)Nc1ccccc1Cl
  -18%	2%	9	10	0	6.5
O=[N+]([O-])c1ccc(/C=N/Nc2ncc(Br)cn2)cc1
  2%[15.4 µM]	4%	7	-2	-5	-0.5
Cc1cnc(NC(=O)/C=C/c2ccc(Br)o2)s1
  -27%	4%	5	3	7	-4.1
CCOc1ccccc1NC(=O)NCCCCc1ccccc1
  3%	-3%	7	-19	-4	-1.5
Cc1[nH]c(=O)c(C#N)c(C)c1[N+](=O)[O-]
  5%	6%	2	3	-7	-6.3
O=C(Nc1nc2cc3c(cc2s1)OCO3)C1CC1
  -15%[15.4 µM]	1%	-1	-5	-8	0.8
COc1cccc(COC(=O)c2ccc3c(=O)n4c(nc3c2)CCC4)c1OC
  16%[15.4 µM]	-18%	1	6	-1	0.1
CC(=O)NC(Cc1cccc(C)c1)C(=O)NC1CCN(C(=O)NCc2ccccc2)CC1 (stereo not drawn)
  -2%[15.4 µM]	7%	-15	-9	0	-3.2
CN1CCN(S(=O)(=O)c2cccc(C#N)c2)C(c2ccccc2)C1 (stereo not drawn)
  -1%[15.4 µM]	9%	-6	-8	14	1.8
O=C(O)c1ccc(/C=C(\c2nc3ccccc3[nH]2)c2nc3ccccc3s2)cc1
  32%[15.4 µM]	-19%	-2	-1	-4	1.1
O=C(c1ccc(F)cc1F)N1CCCC(c2nc(-c3cccs3)no2)C1 (stereo not drawn)
  2%	-11%	-11	-4	12	-2.9
COCCNc1ncnc2c1ncn2[C@H]1CN(Cc2ccc(OC)cc2)C[C@@H](CO)O1
  /	/	14	1	5	8.2
COc1ccc(/C=C2/SC(=S)N(Cc3ccccc3)C2=O)cc1O
  -9%	-2%	-5	-12	-20	-6.5
O=C(Cc1nn[nH]n1)Nc1ccc(F)cc1F
  6%[15.4 µM]	2%	6	-11	16	-3.5
O=C(O/N=C\c1ccc(N2CCCCC2)c([N+](=O)[O-])c1)c1cccc(Cl)c1
  1%	-11%	-1	6	-10	-3.2
CCN(c1ccccc1)S(=O)(=O)c1cccc(C(=O)O)c1
  -8%	-12%	-19	-2	0	-1.2

Record cards (already shown).
COc1ccc(/C=C2/SC(=S)N(Cc3ccccc3)C2=O)cc1O in the list: gsp agonist = -9%; gsp antagonist = -2%; CtBP-E1A blk = -5; D2 PAM = -12; Six1-Eya2 blk = -20; D2 agonist = -6.5
O=C(O)c1ccc(/C=C(\c2nc3ccccc3[nH]2)c2nc3ccccc3s2)cc1 in the list: gsp agonist = 32%[15.4 µM]; gsp antagonist = -19%; CtBP-E1A blk = -2; D2 PAM = -1; Six1-Eya2 blk = -4; D2 agonist = 1.1
CCN(c1ccccc1)S(=O)(=O)c1cccc(C(=O)O)c1 in the list: gsp agonist = -8%; gsp antagonist = -12%; CtBP-E1A blk = -19; D2 PAM = -2; Six1-Eya2 blk = 0; D2 agonist = -1.2

(next part)
Second line of a record – gsp agonist	gsp antagonist	CtBP-E1A blk	D2 PAM	Six1-Eya2 blk	D2 agonist
Cc1ccccc1NS(=O)(=O)c1ccc(S(=O)(=O)N2CCCC2)cc1
  -72%[inhibitor]	/	3	-5	1	-2.9
CCOC(=O)N(C)c1c(CC)nc2c(OCCC3CCCCC3)cccn12
  /	/	-26	-21	-1	-2.5
CC(OC(=O)c1ccc2ccccc2c1)C(=O)N(C)Cc1ccccc1 (stereo not drawn)
  1%	?	-12	-4	1	-3.7
Cc1ccc2c(c1)C(c1ccc([N+](=O)[O-])cc1)=NNC(c1ccc(Br)cc1)=N2
  8%	11%	2	-28	-8	-3.8
CCC1(c2ccccc2)NC(=O)N(CC(=O)Nc2ccc3c(c2)CCC3)C1=O (stereo not drawn)
  0%	/	-1	-15	-5	-3.2
COc1cccc(Nc2nnc(SCc3nc4ccccc4s3)s2)c1
  -2%[15.4 µM]	-9%	-5	-4	-10	-0.6
CC1CCCCN1C(=O)CSc1nnc(-c2cccnc2)o1 (stereo not drawn)
  11%	4%	1	-2	4	-0.7
COc1cc(OC)cc(C(=O)NCCSCc2ccc(Cl)cc2)c1
  20%	-16%	-8	-13	-1	-3.9
CN(c1ccccc1)S(=O)(=O)c1ccc(C(=O)Nc2nnc(-c3ccc(F)cc3)o2)cc1
  0%	-18%	-3	-10	4	0.9
O=C(O)CCCC(=O)NCc1c(Cl)cccc1Sc1ccc(Cl)cc1
  -2%[15.4 µM]	5%	6	-1	1	-0.5
CC1=C(C(=O)OCc2ccccc2)C(c2ccccc2Br)NC(=O)N1 (stereo not drawn)
  19%[15.4 µM]	5%	-1	?	-1	97*
CCOc1cc(C)c(S(=O)(=O)Nc2ccc(F)cc2)cc1C
  ?	-14%	6	-1	9	2.7
CCOC(=O)C1(Cc2ccc(OC)cc2)CCN(C(=O)c2cc(C)nn2C)CC1
  -4%	-24%	/	-6	3	7.5
CNc1nc(SC)nc(N(C)C#N)n1
  19%	19%	-5	-5	-8	-3.1
N#CCC(=O)NCCCc1ccccc1
  -19%[15.4 µM]	-12%	0	-4	10	-3.8
C#CCN(C(=O)c1ccc(OC2CCN(Cc3ccccn3)CC2)cc1)C1CCCCC1
  -40%[inhibitor]	3%	-1	-21	1	2.9
CCCCSc1nnc([C@@H](NC(=O)OC(C)(C)C)C(C)C)o1
  -16%	6%	32	-12	25	-3.2
CC(C)(C)c1cc(CCC(=O)N2CCC2)cc(C(C)(C)C)c1O
  ?	2%	9	-2	12	0.7
O=C1CCC(C(=O)OCC(=O)c2ccccc2)N1 (stereo not drawn)
  -4%[15.4 µM]	9%	11	3	1	-1.6
CCC(c1nnnn1Cc1ccc2c(c1)OCO2)N1CCN(c2ccc(F)cc2)CC1 (stereo not drawn)
  -13%[15.4 µM]	3%	-3	-9	-16	-6.2
C=CCSc1nc2c(c(=O)[nH]1)C(C(C)C)C(C#N)=C(N)O2 (stereo not drawn)
  0%	21%	3	2	-2	-3.5
CN(C)Cc1c(C(=O)N/N=C/c2ccc(-c3ccccc3)cc2)nnn1-c1nonc1N
  ?	-7%	-7	-8	3	6.3
COc1cc(-c2cc(C(=O)O)c3cc4ccccc4cc3n2)cc(OC)c1OC
  28%	/	4	1	4	-3.1
COc1ccc(/C=N/NC(=S)SC)cc1OC
  -44%	11%	-18	1	-15	1.2
CC(C)(C)NC(=O)CN(C(=O)CNS(=O)(=O)c1ccccc1)c1ccc2c(c1)OCCO2
  18%	8%	2	0	6	-0.9
Cn1cccc1C(=O)OCC(=O)Nc1cccc(S(=O)(=O)N2CCOCC2)c1
  ?	-3%	/	-31	8	-6.0
CCN(C[C@H]1N[C@@](CC)(C(=O)OC)[C@H]2C(=O)N(C)C(=O)[C@@H]12)C(=O)Nc1ccc(F)cc1
  /	11%	-1	-7	4	-4.9
COc1cc(C(=O)NCc2nnc(SCC(=O)N3CCc4ccccc43)o2)cc(OC)c1OC
  -44%[inhibitor]	4%	-1	-20	-7	-1.1
COc1ccc(CCNC(=O)COc2ccc(S(=O)(=O)N3CCCC3)cc2)cc1
  12%	-3%	6	-5	2	-0.9
CCOC(=O)N1CCN(C(=O)c2ccc(C)c(S(=O)(=O)Nc3ccccc3)c2)CC1
  -17%	-21%	5	1	12	-0.7
Nc1ccc(C(=O)c2cccs2)cc1
  34%[15.4 µM]	3%	-13	-3	0	-2.5
c1ccc(-c2nnc(CN3CCCCC3)o2)cc1
  ?	1%	/	-10	2	-9.3
O=C(Nc1ccc(N2CCOCC2)cc1)c1cccc2c(-c3ccc(F)c(F)c3)coc12
  /	/	-14	-17	-6	5.6
CC(=O)NC(CCS(C)(=O)=O)C(=O)Nc1c(C)cccc1C (stereo not drawn)
  -14%	5%	-1	-3	2	12
COc1ccc(CNC(=O)CCCCCn2c(SCC#N)nc3cc4c(cc3c2=O)OCO4)cc1
  -21%	0%	-12	-16	-11	-4.1
COC(=O)CCCSc1nccn1-c1ccccc1
  9%	-3%	-3	-11	-1	-6.6
O=C(COC(=O)c1cc(Br)ccc1O)Nc1cc(S(=O)(=O)N2CCCC2)ccc1Cl
  -15%	?	-5	-7	-13	-1.5
O=C(NCCCCNC(=O)c1ccccc1F)c1ccccc1F
  -41%[inhibitor]	3%	-2	-6	3	1.8
CC(C)c1nnc(NC(=O)CCC(=O)N2CCC(Cc3ccccc3)CC2)s1
  15%	-6%	0	-6	-8	-1.4
O=C1OC(Cc2ccncc2)C(O)=C1C1=NCCCN1 (stereo not drawn)
  32%[15.4 µM]	-7%	17	-4	10	2.0
CCCn1ncc(CN2CCN(CCc3ccccc3)C(CCO)C2)c1C (stereo not drawn)
  -32%[inhibitor]	?	4	-7	8	-2.1
CC(=O)c1cc(-c2ccccc2)n(CC(=O)NC(C)(C)C)c1C
  ?	-2%	/	-6	0	3.4
C=C1CCC(N(O)c2cc(C)on2)C(=C)CCC2C1CC2(C)C (stereo not drawn)
  /	3%	2	4	-1	7.8

Not a hit list. Share with any hit: about 1.4%.
